High-throughput results (PubChem)
VDR inh: vitamin D3 receptor (human) inhibition; P11473; VDR-SRC2-3 peptide fluorescence polarization, 2 h; Potency, µM, without a hit: max response, negative = inhibition, hits mostly inhibitors; 0.93% of 400,000 active; AID 504847; active = well fitted inhibition curve with a large enough effect; inconclusive = small, poorly fitted or top-dose-only effect, or another doubt; inactive = no such curve, though single readings can be large or run the other way; also: series mostly up to about 120 µM
Target sequence (P11473 whole entry, looked up): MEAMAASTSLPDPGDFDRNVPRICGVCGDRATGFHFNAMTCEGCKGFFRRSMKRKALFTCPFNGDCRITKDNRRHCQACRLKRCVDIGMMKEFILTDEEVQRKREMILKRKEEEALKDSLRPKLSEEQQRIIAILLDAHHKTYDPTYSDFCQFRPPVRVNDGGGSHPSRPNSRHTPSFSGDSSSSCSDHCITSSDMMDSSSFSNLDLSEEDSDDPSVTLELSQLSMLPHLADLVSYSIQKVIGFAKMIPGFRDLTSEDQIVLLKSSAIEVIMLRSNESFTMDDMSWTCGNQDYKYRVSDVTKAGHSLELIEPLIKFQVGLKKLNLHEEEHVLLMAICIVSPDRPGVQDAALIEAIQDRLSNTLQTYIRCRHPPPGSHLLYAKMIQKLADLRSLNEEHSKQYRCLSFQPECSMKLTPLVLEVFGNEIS
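Reagent solutions, kept cold and dark, are dispensed first; compounds are then pinned in at 23 nl, plates briefly spun, and incubated 2 h at ambient temperature. Inhibition of VDR–SRC2-3 peptide binding is read by fluorescence polarization.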
An asterisk follows results filed as active; u = inconclusive; & = joins results of further samples; [ ] = remark or other dose. % is scaled to controls: 0 for no effect and ±100 for the full control effect; potency is read from the fitted curve at half-maximal effect. Only part of the results is shown; rates above refer to the full screens.

Molecule	VDR inh
COc1cccc(/C=C2\SC(=S)N(CCCC(=O)N(CCO)c3ccccc3)C2=O)c1	u
CCCOc1ccc(/C=N/NC(=O)C(=O)Nc2ccccn2)cc1	6%
CCCCC(=O)N/N=C/c1sccc1C	-5%
COc1ccc(/C=N/NC(=O)CN2CCCC2)cc1	-16%
O=C(COc1ccc2ccc(=O)oc2c1)Nc1nccs1	-22%
COc1ccc(C=NNC(=O)CCCC(=O)NN=Cc2ccc(OC)c(OC)c2)cc1OC	-23%
CC(C)OCCCNC(=O)c1c(N)n(/N=C/c2ccccn2)c2nc3ccccc3nc12	1%
NC(=O)c1cc(-c2cccnc2)nc2ccc(Br)cc12	-21%
CC(C)Cn1c(=O)c(-[n+]2ccccc2)c([O-])c2ccccc21	-8%
CCCCCn1c(CNC(=O)c2cccs2)nc2ccccc21	8%

Nothing new here: an excerpt of the list.
Molecule	VDR inh
CC(C)Cn1c(=O)c(-[n+]2ccccc2)c([O-])c2ccccc21	-8%
CCCCCn1c(CNC(=O)c2cccs2)nc2ccccc21	8%

(next part)
Molecule	VDR inh
COc1ccc(N2C(=O)C(CC(=O)Nc3ccc(F)cc3)N(Cc3ccc4c(c3)OCO4)C2=O)cc1 (stereo not given)	2%
CCC(C)(C)NC(=O)c1ccc2c(c1)S(=O)(=O)c1ccccc1C2=O	-19%
Cc1ccc(C)c(NC(=O)CCNS(=O)(=O)c2ccc3[nH]c(=O)oc3c2)c1	-23%
O=C(NOC(=O)c1c(F)cccc1Cl)c1ccc(Cl)c(Cl)c1	-8%
CCC(C)(NC(=O)CNC(C)=O)C(=O)NC1CCCCC1 (stereo not given)	6%
Cc1cccc(OCC(=O)O/N=C(\N)Cc2ccc([N+](=O)[O-])cc2)c1	0%
COc1ccc2c(c1)SCCC2=O	10%
CCOC(=O)CCCCCCCCCCCCC1C=CCC1 (stereo not given)	u
COc1ccccc1N1CCN(CC(=O)Nc2nccs2)CC1	-9%
COc1ccc(S(=O)(=O)Nc2c(O)c3ccccc3oc2=O)cc1	10%

Rewritten with each value named: 3 of the compounds above.
CCOC(=O)CCCCCCCCCCCCC1C=CCC1 (stereo not given)
- VDR inh: u

COc1ccccc1N1CCN(CC(=O)Nc2nccs2)CC1
- VDR inh: -9%

COc1ccc(S(=O)(=O)Nc2c(O)c3ccccc3oc2=O)cc1
- VDR inh: 10%

Other compounds follow:
Molecule	VDR inh
O=C(O)c1ccc2c(c1)C(=O)N(c1ccc(C(=O)OCC(=O)c3ccccc3)cc1)C2=O	9%
O=C(O)C1Nc2c(Cl)cc(Cl)c(Cl)c2C2C=CCC12 (stereo not given)	u
O=C(Nc1cccc2cccnc12)C(Cl)(Cl)Cl	5%
COc1ccc(N2CCN(C(=O)c3c(C)oc4nc(C)nc(N5CCCC5)c34)CC2)cc1	11%
O=C(c1cccc([N+](=O)[O-])c1)N1CCCN(C(=O)c2cccc([N+](=O)[O-])c2)CC1	1%
Cc1ccc(S(=O)(=O)NN2C(=O)/C(=C/c3ccc(F)cc3)SC2=S)cc1	-27%
CC(CN1C(C)CCCC1C)OC(=O)c1ccc(Cl)cc1 (stereo not given)	-25%
NC(=O)C1CCN(CC(=O)N2N=CCC2c2ccccc2)CC1 (stereo not given)	-16%
COc1ccc(-n2nc(C(=O)N3CCC(N4CCCCC4)CC3)c3c4ccccc4n(C)c3c2=O)cc1	-15%
CC(=O)c1cccc(Nc2nc(-c3ccccc3Cl)nc3ccccc23)c1	13%
CNC(=O)c1[nH]cnc1C(=O)N[C@@H](CCCCNC(=O)OC(C)(C)C)C(=O)OC(C)(C)C	-16%
COc1ccc(NC(=O)COC(=O)c2ccc(OC)c(S(=O)(=O)N3CCCC3)c2)cc1OC	-6%
CCc1ccccc1NS(=O)(=O)c1cccc2nsnc12	-26%
Cc1ccc(S(=O)(=O)N(C)CC(=O)N2CCCCCC2)cc1	0%
CC(C)c1c(O)nc(SCc2ccccc2)[nH]c1=O	6%
COc1ccc(-c2cc(C(F)(F)F)nc(-n3cc(Cl)cn3)n2)cc1	-8%
CCOC(=O)c1ccccc1NC(=O)C(C)Oc1ccccc1 (stereo not given)	-5%
N#CCCn1c(=O)c(-c2ccc(Cl)cc2)nc2cnc(OCc3ccccc3)nc21	-10%
Fc1ccc(CCN2CCN=C2Nc2ccccc2)cc1	-9%
COc1ccc(S(=O)(=O)N2Cc3ccccc3CC2C(=O)Nc2ccc3c(c2)OCO3)cc1 (stereo not given)	-7%
CN1CCN(C(=O)c2cn(-c3ccccc3)nc2-c2cccs2)CC1	-15%
CC(C)C[C@@H](CN1C(=O)C(=O)NC[C@@H]1CC(C)C)NC(=O)Cc1ccccc1	-15%
COc1cc(N)c(Cl)cc1C(=O)OCCCN1CCCCC1	-5%&11%
CCOP(=O)(OCC)/C(=N/OC(=O)c1ccc(OC)cc1)C(N)=O	13%
C[N+]1(CCC(=O)c2ccccc2)CCCCC1	-19%
O=C(O)COc1ccccc1/C=N/NC(=O)CNC(=O)c1ccco1	8%
O=C(NCC1CCCO1)C(c1ccncc1)N(Cc1cccs1)C(=O)Cn1nnc(-c2ccc(F)cc2)n1 (stereo not given)	13%
Cc1ccc(C(=O)N2CCN(c3ccccc3)CC2)cc1NC(=O)c1ccco1	1%
COc1ccc2c(CC(=O)Nc3nc(C)cs3)coc2c1	17%
COc1ccc(CCNC(=O)COc2ccc3c(C)cc(=O)oc3c2)cc1	6%

Other structures.
Structure | VDR inh
Cc1ccc(C(=O)NC2CCCC2)cc1S(=O)(=O)N1CCCCC1 | 8%
CCOC1C(=O)NC(=O)N1Cc1ccccc1 (stereo not given) | 11%
CC(CNS(=O)(=O)c1ccc2c(c1)CC(=O)N2C)c1ccccc1 (stereo not given) | -18%&10%
O=c1cc2[nH]c3ccccc3c(=O)n2nc1-c1ccccc1 | -5%
Cc1ccc(C(=O)NC2CCN(S(=O)(=O)c3ccccc3F)CC2)cc1 | -5%
N=c1c(S(=O)(=O)c2ccc(Cl)cc2)cc2c(=O)n3ccccc3nc2n1CCN1CCOCC1 | 3%
Cc1ccc(NC(=O)C2CCCN(c3ncnc4onc(C)c34)C2)cc1Cl (stereo not given) | 4%
COc1ccccc1OCCn1cc(/C=N/NC(N)=S)c2ccccc21 | 6%
CCC(C)NC(=O)Nc1ccccc1C (stereo not given) | 5%
O=C(NCCCN1CCOCC1)c1cc(Cl)ccc1[N+](=O)[O-] | -3%
CC1(C)C=CC(=O)[C@]2(C)C1CC(=O)[C@]1(C)C2CC[C@@]2(C)C(c3ccoc3)OC(=O)C3OC321 (stereo not given in full) | -10%
O=C(N/N=C1/CCCc2ccccc21)C(c1ccccc1)c1ccccc1 | -2%
CCCc1cc(C(=O)N/N=C/c2ccc(C)o2)c2ccccc2n1 | -15%
CCS(=O)(=O)NCCc1csc(C)n1 | -4%
COC(=O)c1ccc(C(=O)OC)c(NC(=O)C2CC2)c1 | -6%
Cc1cc(NC(=O)COC(=O)c2c(C)nn(-c3ccccc3)c2C)no1 | 19%
COc1ccc(C(C)(C)C)cc1NC(=O)CCCN1C(=O)CN(C)C1=O | -17%
CC(c1ccccc1)n1cnc2ccccc2c1=O (stereo not given) | 12%
COc1ccc(C(=O)Nc2ccc(S(=O)(=O)Nc3cc(C)nc(C)n3)cc2)cc1 | 3%&1%
COc1ccc(CNC(=O)c2ccc3c(c2)N(C)C(=O)C2CCCCN32)cc1OC (stereo not given) | 18%
O=C1C=CC(=O)N1c1ccccn1 | -1%
COc1ccc(OCCSc2nc3ccccc3c(=O)[nH]2)cc1 | 2%
CCCN1CCN(CCCNC(=O)Cn2nc(-c3ccccc3)ccc2=O)CC1 | -7%
Cc1ccc(Cn2nnc3c(=O)n(CC(=O)NCC4CCCO4)cnc32)cc1 (stereo not given) | 7%
CCOc1ccccc1Nc1cc2n(c(=O)n1)CCc1cc(OC)c(OC)cc1-2 | -15%
CSc1nc(N)c2c3c(sc2n1)COC(C(C)C)C3 (stereo not given) | 6%
CCOC(=O)c1ccc2ncc(C(=O)OCC)c(NCCCN3CCOCC3)c2c1 | -6%
CCN(CC)CCNC(=O)c1cn(-c2ccccc2)nc1-c1cccs1 | -2%
CCCN(C(=O)COC(=O)CNS(=O)(=O)c1ccc(NC(C)=O)cc1)C1CCS(=O)(=O)C1 (stereo not given) | -9%
CCOC(=O)C1(Cc2ccc(OC)cc2)CCN(C(=O)c2cncs2)CC1 | -1%

Single values from the entries so far:
Cc1ccc(C(=O)NC2CCCC2)cc1S(=O)(=O)N1CCCCC1 in VDR inh: 8%
Cc1ccc(C)c(NC(=O)CCNS(=O)(=O)c2ccc3[nH]c(=O)oc3c2)c1 in VDR inh: -23%
O=C(COc1ccc2ccc(=O)oc2c1)Nc1nccs1 in VDR inh: -22%
CC(=O)c1cccc(Nc2nc(-c3ccccc3Cl)nc3ccccc23)c1 in VDR inh: 13%
Cc1ccc(NC(=O)C2CCCN(c3ncnc4onc(C)c34)C2)cc1Cl (stereo not given) in VDR inh: 4%
Cc1cc(NC(=O)COC(=O)c2c(C)nn(-c3ccccc3)c2C)no1 in VDR inh: 19%

Random excerpt: two records from the list.
Structure | VDR inh
CCOc1ccccc1Nc1cc2n(c(=O)n1)CCc1cc(OC)c(OC)cc1-2 | -15%
CCCN(C(=O)COC(=O)CNS(=O)(=O)c1ccc(NC(C)=O)cc1)C1CCS(=O)(=O)C1 (stereo not given) | -9%

Continuation:
Structure | VDR inh
COCCCNC(=O)C(CC(N)=O)NC(=O)OCc1ccccc1 (stereo not given) | 6%
CCOC(=O)C1=C(C)NC(C)=C(C(=O)OCC)C1C(=O)OCC(=O)NCc1ccco1 | -16%
COc1ccc(Cl)cc1S(=O)(=O)N1CCN(CC(=O)C(C)(C)C)CC1 | -4%
CCC(=O)Nc1ccc(NC(=O)CSc2nnnn2Cc2ccccc2)cc1C | -22%
COc1ccc(C(=O)NCC(=O)NC2=NCCS2)cc1 | -11%
CCN(CCCNC(=O)C1CCN(S(=O)(=O)c2cccc3nonc23)CC1)Cc1ccccc1 | -5%
CCOC(=O)C1=C(CSc2nc(-c3ccccc3)ccc2C#N)OC(N)=C(C#N)C1c1ccc(OC)cc1 (stereo not given) | 31%[activator]
CCN(CC(=O)Nc1ccc2c(c1)OCCO2)C(=O)c1ccc(S(=O)(=O)N(C)C)cc1 | 5%
CCc1cccc2c(C(=O)C(NCCCOC)c3ccccc3)c[nH]c12 (stereo not given) | 3%
O=C(/C=C\NCC(=O)c1ccccc1)c1ccccc1 | 0%
COc1ccc(CCNC(=O)CCNC(=O)c2ccco2)cc1 | -13%
O=C(Nc1ccc(Br)c(C(F)(F)F)c1)c1ccc(C(F)(F)F)cc1 | -20%
O=C(N/N=C1/CC2C=CCC12)c1ccc(Br)o1 (stereo not given) | 0%
Cc1c(C(=O)Nc2cccc(C#N)c2)sc2nc3n(c(=O)c12)CCCCC3 | 4%
O=C1COc2ccc(S(=O)(=O)Nc3ccc(OC(F)(F)F)cc3)cc2N1 | 2%
Cc1ccc2nc(-c3ccccc3Cl)cc(C(=O)Nc3cc(C)on3)c2c1 | -1%
CCCNC(=O)Cn1cc(S(=O)(=O)N2CCCC2)c(S(=O)(=O)N2CCCC2)c1 | -1%
Cc1ccc(CN2CCCn3nc(C(=O)NCCc4ccccc4C)cc3C2=O)cc1 | 2%
CCOc1cc2c(cc1/C=C(/C#N)c1ccc(C(=O)O)cc1)OCO2 | 19%
COc1ccc(CNc2ncc(-c3cccc([N+](=O)[O-])c3)n2C)c(OC)c1OC | -7%
Cc1cscc1NC(=O)/C=C/C(=O)O | -1%
Cc1ccc(C(=O)N2CCN(C)CC2)cc1S(=O)(=O)N1CCCCC1 | -8%
Cc1cc(N)n(-c2ccc(Oc3ccccc3)c(S(=O)(=O)O)c2)n1 | 0%
CCOc1ccc(CCNC(=O)c2ccc3c(c2)N(Cc2ccc(F)cc2)CCS3)cc1 | -7%
O=C(O)CCC(=O)N(Cc1cccs1)Cc1cccs1 | 1%
CCOC(=O)/C(C)=C1\NC(C)(C)Cc2ccccc21 | -21%
NC(=O)c1ccccc1-c1nc(-n2ccnc2)c2ccccc2n1 | 5%
O=S(=O)(c1ccc(Cl)cc1)n1ccc2cccnc21 | -2%
N#CCCC(CCC#N)C1=NCCc2ccccc21 | 11%
Cc1ccc(C)c(NS(=O)(=O)c2ccc3[nH]c(=O)[nH]c3c2)c1 | -1%
COc1ccc(NC(=O)N2CCC(O)(c3cccnc3)CC2)c(OC)c1 | -4%
Cc1nc(COc2cc3oc(=O)cc(C)c3cc2Cl)cs1 | 1%
O=C(Nc1nnc(Cc2ccccc2)s1)c1ccccc1 | 1%
O=C(NCC(=O)N(CC1CCCO1)C(C(=O)NC1CCCCC1)c1ccccc1)c1ccco1 (stereo not given) | 4%
COc1ccc(NS(=O)(=O)c2ccc3c(c2)n(C)c(=O)n3C)cc1 | 2%
Cc1ccc(C(=O)NN2CCOCC2)cc1 | 3%
Cc1nn(-c2ccccc2)c2c1C(c1cccs1)C(C#N)=C(N)O2 (stereo not given) | -27%
O=C(Nc1ccncc1)c1cccs1 | 5%
CCCC1=[N+](CC)CCn2c(C)ccc21 | -25%
O=C(CCCN1C(=O)/C(=C/c2cccs2)SC1=S)NNC(=O)c1cccnc1 | -5%
O=C(NCC(=O)N1CCN(Cc2ccccc2)CC1)c1ccc(Cl)cc1 | -10%
O=C(CCCn1c(=O)c2cccn2c2cccnc21)NCc1cccc(Br)c1 | 16%
Cc1ccc(/C=C/c2onc(C)c2S(=O)(=O)N2CCC(C(=O)NCC(C)c3ccccc3)CC2)cc1 (stereo not given) | 18%
CC(C)c1noc2ncc(C(=O)c3cc(Cl)cc(Cl)c3O)cc12 | -21%
Cc1ccc(-n2cccc2/C=C2\C(=N)N3N=C(C(C)C)SC3=NC2=O)cc1 | -21%
O=C(Nc1ccccc1)c1ccc(F)cc1F | -6%
Cc1cc(C)cc(N(CC(=O)NC2CCC(C)CC2)S(=O)(=O)c2c(C)noc2C)c1 (stereo not given) | -11%
Cc1cnc(CNc2ccnc(-c3c(C)noc3C)n2)cn1 | -4%
CCOc1ccc(C(=O)CCN2CCOCC2)cc1 | 50µM*
COc1ccc(NC(=O)CN(C)C(=O)C2CC(=O)N(c3cccc4ccccc34)C2)cc1 (stereo not given) | 18%
